Polio RdRp inh: inhibitors of poliovirus RNA polymerase binding and polymerization; poliovirus polymerase elongation, fluorescence polarization; hits give low values; % elongation, % (compound at 16.7 µg/mL); 0.66% of 150,000 active; AID 588519; in the data active = % elongation below about 90%; note: some results filed as inactive read as strong as hits
Target sequence (P03300 1749-2209 limits assumed): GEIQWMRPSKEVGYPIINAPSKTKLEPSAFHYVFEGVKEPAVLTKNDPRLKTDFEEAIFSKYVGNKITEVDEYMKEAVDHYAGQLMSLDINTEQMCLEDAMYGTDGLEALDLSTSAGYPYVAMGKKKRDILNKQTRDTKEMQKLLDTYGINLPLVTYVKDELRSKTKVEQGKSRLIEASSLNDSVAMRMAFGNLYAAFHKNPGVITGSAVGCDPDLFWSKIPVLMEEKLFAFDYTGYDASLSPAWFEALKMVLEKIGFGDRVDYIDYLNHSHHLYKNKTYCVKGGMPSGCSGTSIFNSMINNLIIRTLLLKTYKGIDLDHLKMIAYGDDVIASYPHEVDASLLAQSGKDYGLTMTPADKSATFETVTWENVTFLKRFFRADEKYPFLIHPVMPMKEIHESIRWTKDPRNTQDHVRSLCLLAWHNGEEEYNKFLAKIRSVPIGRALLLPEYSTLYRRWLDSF
Polio RdRp inh intensity: also measured in Polio RdRp inh; calls as there; % elongation; measured here: total intensity read-out; formula for this scale not given here;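 total fluorescence in place of polarization; lower means less elongation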
* marks the source's active call; other numbers are inactive results. Only part of the results is shown; the hit share may differ from the screen's.

compound	Polio RdRp inh intensity	Polio RdRp inh
COc1ccc(CNC(=O)Cc2csc3nc(-c4ccc(C)cc4)cn23)cc1	116.0	111.0
COc1ccc(N(CC(=O)Nc2cc(Cl)ccc2C)S(=O)(=O)c2c(C)noc2C)cc1	106.0	104.0
O=C(C1CC1)N1CCc2cc(Br)cc(S(=O)(=O)N3CCN(c4cccc(C(F)(F)F)c4)CC3)c21	109.0	103.0
CCCN(CCC)C(=O)CSc1nnc2cc(C)c3ccccc3n12	115.0	107.0
COc1ccc(C(=O)c2oc3ccccc3c2NC(=O)c2cccc(OC)c2)cc1	109.0	108.0
CCSc1ncc(Cl)c(C(=O)Nc2ccc(S(=O)(=O)Nc3ncccn3)cc2)n1	113.0	114.0
Cc1cccc(CNC(=O)Cn2nc(C)c3nn(-c4ccc(Cl)cc4)c(C)c3c2=O)c1	115.0	114.0
CCC(=O)N1CCc2cc(Br)cc(S(=O)(=O)CCC(=O)Nc3ccccc3C)c21	108.0	104.0
Cc1nnsc1C(=O)Oc1ccc(C#N)cc1	105.0	102.0
CCC(C(=O)NC1CCCCC1)n1c(SCc2cccc(C)c2)nc2ccncc21 (stereo unspecified)	112.0	106.0
CCOc1ccc(CCNC(=O)Cc2ccc(NC(=O)N3CCSc4ncccc43)cc2)cc1	111.0	106.0
Cc1cc(C)cc(-n2cnc3cc(C(=O)NCCc4ccccc4)ccc32)c1	109.0	107.0
CCn1ccc2cc(S(=O)(=O)N3CCC(C(=O)NCc4cccc(Cl)c4)CC3)ccc21	114.0	113.0
CCOc1ccc(-n2c(SCC(=O)N3CCOCC3)nc3c([nH]c4ccccc43)c2=O)cc1	106.0	98.0
Cc1ccc(OCC(=O)Nc2ccccc2C(=O)OCc2cc(=O)n3nc(C4CC4)sc3n2)cc1	117.0	112.0
CCOCCCNC(=O)c1ccc2nc(CCc3ccccc3)oc2c1	110.0	109.0
O=C(C1CC1)N1CCc2cc(Br)cc(S(=O)(=O)Nc3ccc(C(F)(F)F)cc3)c21	107.0	102.0
Cc1ccc(Cl)cc1N1CCN(C(=O)c2cccn2-c2nnc(N3CCCC3)s2)CC1	110.0	108.0
CCOC(=O)c1cc(-c2ccccc2)n(CC(=O)Nc2ccc(CC)cc2)c1C	106.0	101.0
CC(C)c1ccc(NC(=O)c2cccc3c2C(=O)N(C2CCCCC2)C3)cc1	102.0	104.0
CC1CCN(S(=O)(=O)c2cc(C(=O)N3CCN(c4cccc(Cl)c4)CC3)n(C)c2)CC1	101.0	100.0
COc1ccccc1CCNC(=O)C1CCN(c2nnc(C)c3c(C)n(-c4ccc(C)cc4)nc23)CC1	103.0	108.0
CCN(CC)CCCNC(=O)C(C)n1nc(C)n2c(cc3occc32)c1=O (stereo unspecified)	108.0	104.0
CCC1CCCCN1C(=O)Cn1c(=O)n(CCCCCC(=O)NCc2ccccc2Cl)c(=O)c2sccc21 (stereo unspecified)	111.0	103.0
Cc1ccc([C@H]2Nc3ccc(S(=O)(=O)Nc4cccc(Cl)c4C)cc3[C@H]3C=CC[C@H]32)cc1	122.0	115.0
COc1ccc(C2N3CC4(C)CN2CC(c2ccccc2)(C3)C4=O)cc1 (stereo unspecified)	111.0	111.0
O=C(c1cccc(Cl)c1)N(Cc1cccc(F)c1)C1CCS(=O)(=O)C1 (stereo unspecified)	105.0	109.0
Cc1ccc(OCCSc2nc3ccccc3n2CC(=O)N2CCOCC2)c(C)c1	101.0	105.0
CCOc1ccc(NC(=O)CCNS(=O)(=O)c2ccc3c(c2)CCCC(=O)N3)cc1	104.0	104.0
CCCCOc1cccc(C(=O)Nc2sc3c(c2C(=O)OCC)CCCC3)c1	113.0	110.0
COc1ccc(-c2ccc(CNc3ccc4[nH]c(=O)[nH]c4c3)o2)cc1Cl	112.0	108.0
CCOc1ccc2nc(N(Cc3cccnc3)C(=O)c3ccco3)sc2c1	106.0	109.0
Cc1ccn2c(Nc3ccccc3C)c(-c3ccncc3)nc2c1	113.0	111.0
COc1ccccc1CNC(=O)C1CCN(S(=O)(=O)c2ccc3[nH]c(=O)ccc3c2)CC1	115.0	108.0
COc1ccc(NC(=O)c2ccco2)cc1NC(=O)c1cc(Br)ccc1Cl	106.0	105.0
CCc1ccc(-c2cc(C)no2)cc1S(=O)(=O)Nc1ccc(C)cn1	108.0	104.0
COc1ccc(CCNS(=O)(=O)c2c(C)nc3sccn3c2=O)cc1OC	106.0	101.0
Cc1ccc(NC(=O)c2c(C)oc3ccc(O)c(CN(C)Cc4ccccc4)c23)c(C)c1	108.0	110.0
CCc1nnc(NC(=O)C(=O)c2cc(C)n(-c3ccccc3)c2C)s1	108.0	101.0
CSc1ccc(CCNC(=O)C(C)n2nc(C)c3sc4ccccc4c3c2=O)cc1 (stereo unspecified)	113.0	111.0
Cc1oc2ncn(C)c(=O)c2c1C(=O)N1CCN(c2ccc(Cl)cc2)CC1	100.0	102.0
COc1cccc(C2=CC(c3ccccc3F)n3ncc(C(=O)Nc4ccc(C)cc4)c3N2)c1 (stereo unspecified)	154.0	96.0
COC(=O)c1ccccc1NC(=O)C1CCN(C(=O)N2CC(C)Oc3ccccc32)CC1 (stereo unspecified)	112.0	108.0
CCCNC(=O)C(Cc1ccccc1)NS(=O)(=O)c1ccc2c(c1)c(=O)n(C)c(=O)n2C (stereo unspecified)	109.0	108.0
Cc1ccc(NC(=O)C(=O)NCC(c2ccc3c(c2)OCO3)N2CCN(c3ccccc3)CC2)cc1 (stereo unspecified)	114.0	111.0
CCc1ccc(-c2nn(CC(=O)NC3CCCCC3)c3c2cnc2ccc(C)cc23)cc1	111.0	105.0
CCn1c2ccccc2c2cc(CN3CCN(Cc4ccc(OC)c(OC)c4)CC3)ccc21	103.0	99.0
Cc1ccc(NC(=O)C2CCC(CNS(=O)(=O)c3ccc4c(c3)C(C)(C)C(=O)N4C)CC2)cc1 (stereo unspecified)	103.0	105.0
Cc1ccc(Cl)cc1NC(=O)Cn1c(=O)oc2cc(S(=O)(=O)N3CCCCCC3)ccc21	103.0	103.0
CCN(CC)C(=O)Cn1c(=O)n(-c2ccc(C)c(C)c2)c(=O)c2c3c(sc21)CCCCC3	113.0	108.0

Going on with the list.
compound	Polio RdRp inh intensity	Polio RdRp inh
O=C(c1ccc2c(c1)N(Cc1cccc(Cl)c1)C(=O)c1ccccc1S2(=O)=O)N1CCCCC1	108.0	100.0
Cc1ccc(N2CC(NC(=O)C3CCCC3)CC2=O)cc1C (stereo unspecified)	112.0	108.0
COc1ccc(CC(=O)Nc2nc3c(s2)CC(C)CC3)cc1 (stereo unspecified)	97.0	105.0
Cc1ccc2c(c1)c1c3n2CCN(C(=O)c2cccc(C(F)(F)F)c2)C3CCC1 (stereo unspecified)	104.0	106.0
CCc1ccc(NC(=O)CCn2c(=O)c3cccn3c3ccccc32)cc1	110.0	111.0
CCOc1ccc(N2CC(NC(=O)Cc3ccccc3)CC2=O)cc1 (stereo unspecified)	94.0	108.0
CCC(=O)N1c2ccccc2CC1C(=O)NCc1ccccc1Cl (stereo unspecified)	100.0	106.0
Cc1cc(C)cc(-n2ccnc2SCC(=O)Nc2nc3ccccc3s2)c1	100.0	97.0
Cc1cc2c(n1-c1ccc(C(=O)NCc3ccccc3Cl)cc1)CCCC2	112.0	115.0
CC(=O)N1CCCc2cc(S(=O)(=O)N3CCCC(C(=O)Nc4ccc(C)c(C)c4)C3)ccc21 (stereo unspecified)	106.0	102.0
CC1Cc2cc(S(=O)(=O)CCC(=O)Nc3ccccc3F)ccc2N1C(=O)C1CC1 (stereo unspecified)	110.0	105.0
CSc1ccc(CNC(=O)Cc2csc3ccccc23)cc1	111.0	107.0
Cc1c(C(=O)NCCc2ccc(Cl)cc2)sc2nc3n(c(=O)c12)CCCC3	107.0	105.0
COc1cccc2cc(-c3nc4ccc(C)cc4[nH]3)c(=O)oc12	116.0	107.0
CN1CCN(C(=O)Nc2cccc(Cl)c2)c2cccnc21	108.0	109.0
Cc1ccc(-n2c(=O)c3c(C)c(C)sc3n(CC(=O)NCc3ccccc3)c2=O)cc1C	105.0	103.0
Cc1cc(C)c2nc(C)cc(Nc3cccc(C(=O)O)c3)c2c1	106.0	101.0
COc1ccc(OCC(=O)OCc2cc(=O)n3cc(C)sc3n2)cc1	97.0	102.0
Cc1ccc(C)c(-n2nnc(-c3nc(-c4ccc(Cl)cc4)no3)c2N)c1	112.0	114.0
Cc1cc(C)cc(NC(=O)c2cc3c(=O)n(Cc4ccco4)ccc3nc2C)c1	110.0	108.0
O=C(/C=C/c1ccccc1)Nc1nc2n(n1)C(c1ccc(Cl)cc1)C=C(c1ccccc1)N2 (stereo unspecified)	114.0	111.0
CCn1c(CNC(=O)c2ccc(OC)cc2)nnc1SCC(=O)Nc1ccc(F)cc1	104.0	107.0
CCC(C)NC(=O)Cn1c(=O)n(-c2ccc(C)cc2)c(=O)c2ccccc21 (stereo unspecified)	107.0	105.0
COC(=O)c1nnn(CC(=O)Nc2c(C)cccc2C)c1N	110.0	107.0
CCOC(=O)c1ccccc1NC(=O)c1cc2ccc3cccnc3c2[nH]1	103.0	110.0
Cc1ccc(NC(=O)C2CCC(CNS(=O)(=O)c3cccc4nsnc34)CC2)c(Cl)c1 (stereo unspecified)	113.0	108.0
CN(C)c1cccc(C(=O)Nc2ccc(-c3nc4ccccc4s3)cc2)c1	100.0	109.0
COc1cccc(NC(=O)CSc2nc3cc(OC)c(OC)cc3c3nc(-c4ccccc4)nn23)c1	107.0	103.0
COc1ccc(CCNC(=O)c2ccc3c(Cl)c4c(nc3c2)CCCC4)c(OC)c1	107.0	110.0
CCc1ccc(NC(=O)Cn2ccn(Cc3ccccc3OC)c(=O)c2=O)cc1	110.0	103.0
COc1ccc(-n2ncc(C(=O)N3CCN(c4cc(C)ccc4C)CC3)c2C2CCN(C(=O)OC(C)(C)C)CC2)cc1	104.0	103.0
Cc1ccc(C)c(Cn2c(=O)n(-c3ccccc3)c(=O)c3c4c(sc32)CCCC4)c1	107.0	108.0
COc1ccc(C(CC(=O)Nc2ccccn2)N2Cc3ccccc3C2=O)cc1OC (stereo unspecified)	91.0	92.0
COc1cccc(OCc2nc3ccccc3n2CCOc2ccc(C)cc2)c1	110.0	111.0
COc1ccc(NC(=O)c2sc3nc(C)c(C(=O)Nc4ccc(C)cc4C)c(-c4ccc(C)o4)c3c2N)cc1	126.0	110.0
CCc1ccc(NC(=O)c2sc3nc(C)c(Cl)c(C)c3c2N)cc1	109.0	107.0
CN(C)c1ccc(CN(Cc2ccco2)C(=O)c2ccc(F)cc2)cc1	109.0	111.0
CCCNC(=O)c1ccccc1NC(=O)c1nsc2ccccc12	109.0	113.0
CCC(=O)N1CCc2cc(Br)cc(S(=O)(=O)CCC(=O)Nc3cccc(Cl)c3)c21	109.0	103.0
COc1ccc(-c2noc(N(c3ccc(F)c(Cl)c3)c3nc(-c4ccc(OC)c(OC)c4)no3)n2)cc1OC	103.0	99.0
Cc1cccc(NC(=O)c2c(NC(=O)C(F)(F)F)sc3c2CCCCC3)c1	108.0	105.0
COC(=O)c1ccc2c(c1)sc(=NC(=O)c1ccc(S(=O)(=O)N3CCCCC3)cc1)n2C	116.0	111.0
CCOc1ccc(CCNC(=O)c2ccc3c(c2)c(C)c(C)n3Cc2ccccc2)cc1OCC	112.0	111.0
Cc1ccc(Sc2ccc(N3CCCC(C(=O)Nc4ccc(Cl)cc4)C3)nn2)cc1 (stereo unspecified)	110.0	105.0
Cc1ccc(NC(=O)c2cc(C)nc3c2c(C)nn3-c2cccc(Cl)c2C)c(C)c1	114.0	110.0
O=C(Nc1cccc(-c2nc3ccccc3o2)c1)c1ccc(-c2ccc(Br)cc2)o1	106.0	106.0
CCOc1ccc(N(C(=O)Cn2nnc3ccccc32)C(C(=O)NCc2ccccc2)c2ccc(OC)cc2)cc1 (stereo unspecified)	101.0	106.0
CCOC(=O)Cn1c(=O)n(CC2CCCO2)c2nc(-c3cc(OC)ccc3OC)nc(C(N)=O)c21 (stereo unspecified)	97.0	104.0
Cc1nc2nncn2c(Nc2ccc(F)cc2)c1C	108.0	110.0
CCN(CC)C(=O)Cn1cc(SCC(=O)Nc2ccc(C)cc2)c2ccccc21	111.0	110.0
COc1ccc2c(c1)c(N1CCCC1=O)c(C(=O)Nc1cc(C)c(Cl)cc1OC)n2C	113.0	109.0
Cc1cc(=O)oc2cc(OCC(=O)Nc3c(C(C)C)cccc3C(C)C)ccc12	109.0	104.0
